Source: PubChem (PCMD)
Calb biofilm kill – mixture kills Candida albicans biofilm cells; 120,000 tested, 0.02% active; inhibition, % at 7.6 µM; C. albicans biofilm persisters + clotrimazole, fluorescence viability; primary screen in compound mixtures of four per well;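 active = inhibition above 30.3% in the primary screen of four-compound pools, then above 30% when the compound was retested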;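 note: compounds exposed to preformed 24 h biofilms for 48 h; the number belongs to the whole pool; some results filed as inactive read as strong as hits; inactives centre near 12; 0% = biofilm with clotrimazole alone and 100% = kill control; retested singly at about 60 µM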
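Test system: C. albicans biofilms. Buffer or medium: RPMI/MOPS medium, pH 7.0. Timing: 48 h compound exposure at 37 °C. Technique: Alamar Blue fluorescence. Evaluation: percent inhibition of biofilm viability.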
Numbers without * were called inactive. Some of the compounds tested, so the mix of outcomes need not match the whole.

CS(=O)(=O)N(CC(=O)NCCSCc1c(F)cccc1Cl)c1cccc([N+](=O)[O-])c1 was read as Calb biofilm kill 9.
`CN(Cc1cn(C)nc1-c1ccc(Oc2ccccc2)cc1)CC1COCCO1` (centres undefined) gave Calb biofilm kill 5.
For CCOC(=O)C(=O)Nc1nnc(SCc2ccc(F)cc2)s1 the results were Calb biofilm kill 11.
For O=C(NCC1OCCc2ccccc21)C1COc2ccccc2O1 (centres undefined) the results were Calb biofilm kill 9.
For C/C(=N/NC(=O)c1ccc(Br)o1)C(C)C the results were Calb biofilm kill 13.
`O=C(N/N=C/c1ccc(OC(=O)c2ccc3c(c2)OCO3)cc1)c1cncc(Br)c1` gave Calb biofilm kill 0.
`O=C(O)c1ccccc1C(=O)NCCc1c(C(=O)O)[nH]c2ccc(F)cc12` gave Calb biofilm kill 25.
For COCCN(C)Cc1cn(-c2ccc(F)cc2F)nc1-c1ccccc1C the results were Calb biofilm kill 15.
`CCOc1ccc(NS(=O)(=O)c2cc(NC(=O)c3ccc(C)cc3)ccc2Cl)cc1` gave Calb biofilm kill 9.
CC1(C)CNC(=O)c2sc(NC(=O)c3ccccc3Cl)nc2C1 was read as Calb biofilm kill -2.
`C=CCOc1ccccc1CNCCc1ccc(S(N)(=O)=O)cc1` gave Calb biofilm kill -3.
For COc1ccc(CCN2C(=O)CC(NNC(=O)c3ccc(F)cc3)C2=O)cc1OC (centres undefined) the results were Calb biofilm kill 6.
NC(=O)NCC1CC1 was read as Calb biofilm kill 17.
Screening COc1cc(NC(=S)NCc2ccco2)c(OC)cc1Cl returned Calb biofilm kill 5.
For Cc1cc(C(=O)c2ccccc2)c(NC(=O)CN2CCOCC2)s1 the results were Calb biofilm kill 26.
Screening COc1ccc(CCN(C(=O)c2ccco2)C(C(=O)NC2CCCC2)c2ccncc2)cc1OC (centres undefined) returned Calb biofilm kill 5.
For Cc1cc(NC(=O)COC(=O)c2ccc(S(=O)(=O)N3CCCC3)cc2)no1 the results were Calb biofilm kill 8.
`CN(C)c1ccc(/C=N/NC(=O)CCCCCNC(=O)c2ccccc2)cc1` gave Calb biofilm kill 10.
For O=C(Nc1nc(-c2cc(F)ccc2F)cs1)c1ccccn1 the results were Calb biofilm kill 7.
CC(C)NC(=O)C1CCN(C2CCN(CC3CC=CCC3)CC2)CC1 (centres undefined) was read as Calb biofilm kill 28.

Reprinted at random: five compounds from above, in no set order.
Screening COc1cc(NC(=S)NCc2ccco2)c(OC)cc1Cl returned Calb biofilm kill 5.
CC(C)NC(=O)C1CCN(C2CCN(CC3CC=CCC3)CC2)CC1 (centres undefined) was read as Calb biofilm kill 28.
For Cc1cc(C(=O)c2ccccc2)c(NC(=O)CN2CCOCC2)s1 the results were Calb biofilm kill 26.
NC(=O)NCC1CC1 was read as Calb biofilm kill 17.
For O=C(Nc1nc(-c2cc(F)ccc2F)cs1)c1ccccn1 the results were Calb biofilm kill 7.

Other records follow.
For Cc1oc2cc(O)ccc2c(=O)c1-c1nncn1-c1ccccc1 the results were Calb biofilm kill 17.
N/C(=N\OCc1ccc([N+](=O)[O-])cc1)c1ccccn1 was read as Calb biofilm kill 13.
CC1CCC(NC(=O)CN(C)S(=O)(=O)c2cnc[nH]2)CC1 (centres undefined) was read as Calb biofilm kill 11.
`O=[N+]([O-])c1ccc(/C=N/NC(=S)Nc2ccccc2F)o1` gave Calb biofilm kill 23.
NC(=O)CSc1nnc(CSc2ncccn2)n1-c1ccccc1 was read as Calb biofilm kill -3.
Screening O=c1nc2n(Cc3ccccc3)c3ccccc3cc-2c(=O)[nH]1 returned Calb biofilm kill 5.
Screening Cc1cccc(NC(=O)C2COc3ccccc3O2)n1 (centres undefined) returned Calb biofilm kill 16.
COc1ccc(-n2c(SCC(=O)Nc3ccccc3)nnc2-c2ccoc2C)cc1 was read as Calb biofilm kill 9.
`COc1ccc(NS(=O)(=O)c2cccc(C(=O)NNC(=O)c3cc(C)oc3C)c2)cc1` gave Calb biofilm kill 9.
Nc1nnc(CC(=O)N/N=C/c2ccccc2OCc2ccc(F)cc2)s1 was read as Calb biofilm kill 19.
Screening Cc1ccc(OCC(=O)NC(=S)Nc2cccc(NC(=O)c3ccc(Cl)cc3Cl)c2)cc1 returned Calb biofilm kill 8.
For CCCNC(=O)OC[C@H]1O[C@H](CCO/N=C/[C@@H](OC)[C@H](C)/C=C/CC(=O)OC)C=C[C@@H]1Oc1ccc(OC)cc1 the results were Calb biofilm kill 5.
`COCCn1c(-c2ccccc2)nc2c(c(=O)c3ccccc3n2C)c1=O` gave Calb biofilm kill -14.
Screening COc1ccc(OC)c(/C=N/NC(=O)CCN2CCN(C(c3ccccc3)c3ccccc3)CC2)c1 returned Calb biofilm kill 18.
Screening COc1ccccc1NC(=O)Nc1nn(C)c2cccc(N(C)C)c12 returned Calb biofilm kill 15.
O=C1CCCC/C1=C/Nc1cccc(C(F)(F)F)c1 was read as Calb biofilm kill 18.
NNC(=O)CCS(=O)(=O)c1ccc2ccccc2c1 was read as Calb biofilm kill 21.
Screening CCN(CC)S(=O)(=O)c1ccc(Cl)c(NC(=O)COc2ccc(OC)cc2[N+](=O)[O-])c1 returned Calb biofilm kill -3.
Screening CCOc1ccc(S(=O)(=O)N2CCN(c3ccccc3F)CC2)c2cccnc12 returned Calb biofilm kill 14.
`CCC1CCCCN1C(=S)Nc1ccc(C(C)=O)cc1` (centres undefined) gave Calb biofilm kill 8.

The last two records of the part above are carried over, then new ones follow:
Screening CCOc1ccc(S(=O)(=O)N2CCN(c3ccccc3F)CC2)c2cccnc12 returned Calb biofilm kill 14.
`CCC1CCCCN1C(=S)Nc1ccc(C(C)=O)cc1` (centres undefined) gave Calb biofilm kill 8.
O=C(COC(=O)CCC(=O)c1cccs1)NCc1ccccc1 was read as Calb biofilm kill 4.
Screening Cc1ccc(Nc2ccc(S(=O)(=O)N3CCOCC3)cc2[N+](=O)[O-])cc1C returned Calb biofilm kill 14.
For CC(=O)Nc1c(Nc2ccccc2)c2ccccc2oc1=O the results were Calb biofilm kill 10.
Screening COc1ccc(C2C(C(=O)Nc3ccc(OC)c(OC)c3)c3ccccc3C(=O)N2C)cc1 (centres undefined) returned Calb biofilm kill 5.
`CS(=O)(=O)N1CCC(Oc2ccccc2C(=O)N2CCN(CC3CC3)CC2)CC1` gave Calb biofilm kill 15.
Screening C/C=C\C(=O)Nc1cccc(C2=NOC3(C2)C[C@@H](C(N)=O)N(C(=O)CCCCC)C3)c1 (some centres undefined) returned Calb biofilm kill 16.
For COc1ccccc1OCc1ccc(C(=O)N/N=C/c2ccco2)cc1 the results were Calb biofilm kill -10.
`O=C(NC(Cc1c[nH]c2ccccc12)C(=O)O)c1cccs1` (centres undefined) gave Calb biofilm kill 13.
For CCOCCCNC(=O)C(c1ccccc1)N(Cc1cccs1)C(=O)CNC(=O)c1ccccc1 (centres undefined) the results were Calb biofilm kill 13.
For O=C(c1cccc(NS(=O)(=O)c2cccc(F)c2)c1)N1CCN(c2ccccc2)CC1 the results were Calb biofilm kill 7.
Cc1ccc(S(=O)(=O)N2CCCCC2)cc1NC(=O)c1ccccn1 was read as Calb biofilm kill 15.
`Cc1cc(Cl)ccc1OCC(=O)NCCCCc1ccccc1` gave Calb biofilm kill 8.
COc1ccc(C)cc1-n1c(SCC(=O)Nc2cccc(C(=O)O)c2)nc2ccccc2c1=O was read as Calb biofilm kill 20.
For O=C(N/N=C/c1cccc([N+](=O)[O-])c1)c1cnccn1 the results were Calb biofilm kill 9.
For O=C(Cc1c(Cl)cccc1Cl)OCC(=O)N1CCN(C(=O)c2ccco2)CC1 the results were Calb biofilm kill 20.
`CSc1ccccc1Sc1cc(C(=O)O)c2ccccc2n1` gave Calb biofilm kill -4.
Screening COc1ccc(Nc2cc(=O)n(-c3ccccc3)c3c2c(=O)n(C)c(=O)n3C)cc1 returned Calb biofilm kill 14.
Screening CCc1c(O)nc(SCC(=O)N(CC)CC)[nH]c1=O returned Calb biofilm kill 16.
Screening Cc1ccc(/C(O)=C2\C(=O)C(=O)N(CCN(C)C)C2c2ccccc2F)cc1 (centres undefined) returned Calb biofilm kill -2.
`N#Cc1ccc(CSCC(=O)NN=C2CCCC2)cc1` gave Calb biofilm kill 6.
`COc1cccc([C@@H]2Oc3ccc(OC)cc3C(=O)[C@H]2OC(=O)Nc2cc(OC)c(OC)c(OC)c2)c1` gave Calb biofilm kill 16.
`Cc1cc(C)nc(NS(=O)(=O)c2ccc(NC(=S)NC(=O)c3ccco3)cc2)n1` gave Calb biofilm kill 5.
For CC(C)C(c1nnnn1C1CCCC1)N1CCOCC1 (centres undefined) the results were Calb biofilm kill 6.
`Cc1ccc(-c2nc(N)s[n+]2-c2ccccc2)cc1` gave Calb biofilm kill 17.
Screening CCOc1ccc(NC(=O)C(=O)N/N=C\c2ccc(CNS(=O)(=O)c3ccccc3)o2)cc1 returned Calb biofilm kill 16.
For CC(NC(=O)/C=C/c1ccco1)c1nc2ccccc2n1Cc1cccc(Cl)c1 (centres undefined) the results were Calb biofilm kill 14.
For O=C(CSc1nnc(-c2cccnc2)s1)Nc1ccc(C(=O)O)cc1 the results were Calb biofilm kill 17.
`Cc1nc2c(cc1C(=O)N/N=C/c1ccc([N+](=O)[O-])cc1)c(=O)n(C)c(=O)n2C` gave Calb biofilm kill 8.
Cc1cc(C)n(-c2c(C)[nH]c3ccccc23)n1 was read as Calb biofilm kill 17.
For CC(C)[C@H](NC(=O)c1ccccc1F)C(=O)Nc1nc2c(s1)CCCC2 the results were Calb biofilm kill 1.

Among those listed so far, these contain a Cl atom:
CS(=O)(=O)N(CC(=O)NCCSCc1c(F)cccc1Cl)c1cccc([N+](=O)[O-])c1 was read as Calb biofilm kill 9.
`CCOc1ccc(NS(=O)(=O)c2cc(NC(=O)c3ccc(C)cc3)ccc2Cl)cc1` gave Calb biofilm kill 9.
CC1(C)CNC(=O)c2sc(NC(=O)c3ccccc3Cl)nc2C1 was read as Calb biofilm kill -2.
Screening COc1cc(NC(=S)NCc2ccco2)c(OC)cc1Cl returned Calb biofilm kill 5.
Screening Cc1ccc(OCC(=O)NC(=S)Nc2cccc(NC(=O)c3ccc(Cl)cc3Cl)c2)cc1 returned Calb biofilm kill 8.
Screening CCN(CC)S(=O)(=O)c1ccc(Cl)c(NC(=O)COc2ccc(OC)cc2[N+](=O)[O-])c1 returned Calb biofilm kill -3.
`Cc1cc(Cl)ccc1OCC(=O)NCCCCc1ccccc1` gave Calb biofilm kill 8.
For O=C(Cc1c(Cl)cccc1Cl)OCC(=O)N1CCN(C(=O)c2ccco2)CC1 the results were Calb biofilm kill 20.
For CC(NC(=O)/C=C/c1ccco1)c1nc2ccccc2n1Cc1cccc(Cl)c1 (centres undefined) the results were Calb biofilm kill 14.

(next part)
Screening COC(=O)c1c(-c2c(Cl)cccc2Cl)noc1C(=O)NNC(=O)N(C)C returned Calb biofilm kill 5.
Screening O=C(Nc1c(-c2ccccc2)nc2ccc(Cl)cn12)c1cccs1 returned Calb biofilm kill 12.
For CC(C)(C)OC(=O)NCCc1nnc(SCC(=O)Nc2ccc(Br)cc2)o1 the results were Calb biofilm kill 27.
Cc1ccc(S(=O)(=O)NC(=O)NCCc2ccccc2)cc1 was read as Calb biofilm kill 10.
Cc1cc(N/N=C/c2ccc([N+](=O)[O-])o2)nc2ccccc12 was read as Calb biofilm kill 9.
Cc1[nH]n(-c2ccccc2)c(=O)c1C=Nc1ccc(S(N)(=O)=O)cc1 was read as Calb biofilm kill 22.
For CC(C)N(Cc1ccccc1)C(=S)NCCN1CCOCC1 the results were Calb biofilm kill -2.
For Cc1ccccc1OCCNc1cc(N2CC(C)NC(C)C2)ccc1[N+](=O)[O-] (centres undefined) the results were Calb biofilm kill 17.
Screening CC1CN(Cc2ccccn2)CCC1=O (centres undefined) returned Calb biofilm kill 9.
O=C(Nc1cccc(C(F)(F)F)c1)c1ccc(-n2cncn2)nc1 was read as Calb biofilm kill -1.
CCCCn1c(-c2ccoc2C)n[nH]c1=S was read as Calb biofilm kill 10.
`CCOCCCNCc1ccc(OCc2ccc(F)cc2)c(OC)c1` gave Calb biofilm kill -4.
For COc1ccc(C(=O)ON=C2CCN(C)CC2)cc1 the results were Calb biofilm kill 13.
Screening NC(=O)COC(=O)c1ccc(C(=O)C(=O)c2ccccc2)cc1 returned Calb biofilm kill 2.
Screening O=C(CCNC(=O)c1ccccc1Cl)Nc1ccc(Cl)c(C(F)(F)F)c1 returned Calb biofilm kill 20.
Screening CCCOc1ccc(NC(=O)OC2CCN(C)CC2)cc1 returned Calb biofilm kill 11.
`CC(=O)N1C(C)(C)CC(=NOC(=O)c2ccccc2)CC1(C)C` gave Calb biofilm kill 17.
`Clc1ccc(-c2nnc(-c3ccccc3)nc2-c2c[nH]c3ccccc23)cc1` gave Calb biofilm kill 10.
For CCOc1ccc(NN=C(C(=O)OC)C(=O)OC)c([N+](=O)[O-])c1 the results were Calb biofilm kill 21.
`CCn1cc(C(=O)O)c(=O)c2cc(F)c(N3CCN(C(=S)Nc4ccccc4OC)CC3)cc21` gave Calb biofilm kill 22.
For CC1(NC(=O)NCc2ccco2)CCS(=O)(=O)C1 (centres undefined) the results were Calb biofilm kill 9.
CCn1cc([C@@H]2C[C@H]3CN(Cc4cccc(Cl)c4)C(=O)[C@]34CCCN24)cn1 was read as Calb biofilm kill 0.
COCC(=O)Oc1c(Sc2ccccc2[N+](=O)[O-])c(C)nn1C(C)(C)C was read as Calb biofilm kill 8.
`COc1cc(/C=C2\C(=O)N(CCC#N)N=C2C)c(Br)cc1OC(C)C` gave Calb biofilm kill 10.
For C=CCn1c(=NC(=O)C2COc3ccccc3O2)sc2cc(S(N)(=O)=O)ccc21 (centres undefined) the results were Calb biofilm kill 5.
Screening CCNC(=S)N1CCN(CCNC2=CC(=O)CC(C)(C)C2)CC1 returned Calb biofilm kill 5.
Screening O=C(O)CCCn1cc(NC(=O)c2ccco2)cn1 returned Calb biofilm kill 9.
Screening COc1ccccc1-n1c(-c2ccc(Cl)cc2)c[nH]c1=S returned Calb biofilm kill 9.
`Oc1ccc(Nc2nnc(-c3ccc(O)cc3)c3ccccc23)cc1` gave Calb biofilm kill 20.
